Bioassay records deposited in PubChem BioAssay by several laboratories.
VCAM-1 augmentation: boosters of cytokine-driven VCAM-1 levels – imaging, high-content imaging, pooled HUVEC, TNFa stimulus (AID 457); calls only; Pooled HUVEC, TNFa-induced VCAM-1 immunofluorescence imaging; hits of this screen are not shown here; actives 0.2% (n = 10,000);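 active = a top-ranked rise in VCAM-1 staining upheld on image or statistical review; inactive = the rest, including candidates rejected on review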;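 note: compounds tested at 5 µM in the well; cells exposed to compound for 24 hours before fixing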
FPRL1 ligand: human FPRL1 ligand, with FPR counter-screen | FPRL1-expressing cells, fluorescent ligand binding inhibition, flow cytometry | P25090 | actives 0.3% (n = 24,000) | inhibition, %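 (tested at 6.7 µM)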;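 note: 0% = buffer alone and 100% = receptor blocker peptide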
Target sequence (P25090 whole entry, looked up): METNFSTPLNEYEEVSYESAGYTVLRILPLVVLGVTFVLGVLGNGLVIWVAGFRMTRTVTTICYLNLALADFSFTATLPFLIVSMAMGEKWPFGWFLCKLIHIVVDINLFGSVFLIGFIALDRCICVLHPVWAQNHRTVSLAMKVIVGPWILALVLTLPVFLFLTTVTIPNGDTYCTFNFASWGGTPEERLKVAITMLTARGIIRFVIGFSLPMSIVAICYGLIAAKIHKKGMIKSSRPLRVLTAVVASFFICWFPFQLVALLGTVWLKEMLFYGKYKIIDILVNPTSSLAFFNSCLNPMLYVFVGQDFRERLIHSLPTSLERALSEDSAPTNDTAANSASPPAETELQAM
FPR ligand: ligands of human FPR, also counter-screen for FPRL1 ligands. FPR-expressing cells, fluorescent ligand binding, flow cytometry. AID 440. inhibition, %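 (tested at 6.7 µM)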. P21462. actives 0.74% (n = 24,000);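 note: 0% = buffer wells and 100% = receptor blocker peptide wells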
Target sequence (P21462 whole entry, looked up): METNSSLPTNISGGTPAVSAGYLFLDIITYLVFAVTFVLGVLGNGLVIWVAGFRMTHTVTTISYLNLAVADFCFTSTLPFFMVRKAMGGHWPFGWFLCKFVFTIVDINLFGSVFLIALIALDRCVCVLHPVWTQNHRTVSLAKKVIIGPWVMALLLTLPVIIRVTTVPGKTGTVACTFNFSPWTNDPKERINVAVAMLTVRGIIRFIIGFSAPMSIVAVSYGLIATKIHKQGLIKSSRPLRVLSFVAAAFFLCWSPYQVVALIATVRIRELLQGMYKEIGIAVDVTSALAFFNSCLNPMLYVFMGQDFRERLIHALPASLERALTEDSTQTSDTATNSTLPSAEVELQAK
VCAM-1 imaging: suppression of endothelial VCAM-1 upregulation – imaging, high-content imaging, pooled HUVEC, TNFa stimulus (AID 456) | HUVEC TNFa-induced VCAM-1 surface expression, immunofluorescence imaging; numbers were filed only for top-ranked candidate wells | one-dose inhibition, % at 5 µM; IC50 in µM for titrated hits | actives 0.2% (n = 10,000);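 active = top tenth filtered wells with inhibition above zero that passed visual or statistical confirmation; inactive = the rest, including hits rejected on review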;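 note: 0% = stimulated vehicle wells and 100% = unstimulated cells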
VCAM-1 down: suppression of endothelial VCAM-1 upregulation – cell-based, plate reader, pooled HUVEC, TNFa stimulus (AID 454) | inhibition, % at 5 µM | actives 0.2% (n = 10,000) | HUVEC TNFa-induced VCAM-1 surface immunofluorescence, plate reader; numbers were filed only for top-ranked candidate wells;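 active = compound among top-ranked inhibitors of TNF-induced VCAM-1 adhesion protein staining, with the hit upheld by image or statistical review; inactive = the rest, including hits rejected on review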;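 note: 0% = TNFa with vehicle and 100% = cells without TNFa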
Active calls of the source: *; i = inactive; / = no result given.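 Rule for the calls, unless noted: active = mean above 30%; inconclusive = self-fluorescent; inactive = the rest.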 Some of the compounds tested; the hit share may differ from the screen's.

SMILES	VCAM-1 augmentation	FPRL1 ligand	FPR ligand	VCAM-1 imaging	VCAM-1 down
CC1(C)CC(n2c(=S)[nH]c3ccccc3c2=O)CCO1 (centres undefined)	/	-8	3	/	/
CCCCN(CCCNC(=O)C1CCN(S(=O)(=O)CC)CC1)c1ccccc1	i	1	-6	i	i
CC(NC(=O)Cc1ccc(F)cc1)C(c1cccs1)N1CCN(C)CC1 (centres undefined)	/	-16	-12	/	/
CCOc1ccccc1NC(=O)CCSc1nc2n[nH]c(C)c2c(=N)n1-c1ccccc1Cl	i	-8	0	i	i
CCN1CCCC1CNC(=O)C1CCCN(S(=O)(=O)c2cccc3nsnc23)C1 (centres undefined)	/	-2	-4	/	/
CCOCCCNC(=O)CN1C(=O)CSc2cc(S(=O)(=O)N3CCCCCC3)ccc21	/	-4	3	/	/
CC(=O)c1ccc(NS(=O)(=O)c2ccccc2)cc1	i	2	-4	i	i
COc1cc2c(cc1NC(=O)CN1CCN(S(=O)(=O)c3ccc(F)cc3)CC1)oc1ccccc12	i	5	3	i	i
COc1ccc(C2CC(c3cccs3)n3nc(N)nc3N2)cc1 (centres undefined)	i	-4	-2	i	i
Cc1ccc(C)c(N2CCN(C(=O)CN3C(=O)c4ccccc4C3=O)CC2)c1	/	0	-2	/	/
COCCCNCC(=O)Nc1ccc(OC(F)(F)F)cc1	i	7	-11	i	i
CC(C)CN1C(=O)c2ccc(C(=O)Nc3nccs3)cc2C1=O	i	0	12	i	i
COc1ccc(N2CCN(C(=O)C(Cc3ccccc3)n3cccc3)CC2)cc1 (centres undefined)	/	-3	8	/	/
Cc1noc(/C=C/NCc2cccnc2)c1S(=O)(=O)N(C)CC(=O)N1CCc2ccccc21	/	-1	3	/	/
O=C(c1cccs1)N1CCN=C1SCc1cccnc1	/	0	-1	/	/
O=C(O)C1C2C=CC(O2)C1C(=O)Nc1ccccc1C(F)(F)F (centres undefined)	/	-2	-1	/	/
COCC(=O)n1nc(NCc2ccc(OC)cc2)nc1NCc1ccc(OC)cc1	i	-4	3	i	i
Cn1c(=O)oc2cc(S(=O)(=O)N3CCCC(C(=O)N4CCn5c4nc4ccccc45)C3)ccc21 (centres undefined)	/	10	6	/	/
CCN1CCN(C(=O)N[C@@H](C(=O)N[C@@H]2C(=O)N3[C@@H]2SC(C)(C)[C@@H]3C(=O)O)c2ccccc2)C(=O)C1=O	i	5	6	i	i
CS(=O)(=O)N(CC(=O)N1CCCCCC1)c1ccccc1	i	-1	1	i	i
CCOC(=O)N1CCN(C(=O)c2ccc(Cn3c(=S)[nH]c4cc5c(cc4c3=O)OCO5)cc2)CC1	/	8	2	/	/
COc1ccc(C(C(C(=O)c2cccs2)N2CCOCC2)N2CCOCC2)cc1OC (centres undefined)	i	-4	-1	i	i
COc1cc2c(cc1OC)CN(Cc1nc3ccsc3c(=O)[nH]1)CC2	i	-2	2	i	i
Cc1cccc(NCc2ccccc2O)c1	i	0	0	i	i
COc1ccc(CNC(=O)c2cccc3c2C(=O)N(Cc2cccnc2)C3)cc1	/	3	-3	/	/
Cc1cc2oc(=O)cc(CN3CCCCC3)c2cc1C(C)C	i	1	0	i	i
CCOC(=O)Cn1c(=O)oc2cc(S(=O)(=O)NCC3CCCO3)ccc21 (centres undefined)	/	-3	-3	/	/
Cc1nc2ccc(S(=O)(=O)NC(C(=O)N3CCC(C)CC3)C(C)C)cc2s1 (centres undefined)	/	-1	-1	/	/
O=C(O)Cn1ncc2c1-c1ccoc1CC2	/	-2	0	/	/
CCOC(=O)N1CCC(NC(=O)Cn2ncc3c2-c2cc(C)ccc2OC3)CC1	/	-2	-3	/	/
Cn1c(=O)[nH]c(=O)c2c1nc(Br)n2CCCSc1nc2ccccc2o1	i	-2	-4	i	i
Cc1cc(C)n(-c2ccc(F)cc2)c(=O)c1C(=O)O	/	-9	-9	/	/
Cc1cc(-c2ccccc2)nc(SCc2ccc(C(=O)O)o2)n1	i	-2	-7	i	i
O=C(Nc1nccs1)C1CCCN1S(=O)(=O)c1cccc2cccnc12 (centres undefined)	/	-1	-5	/	/
COc1ccc(N2CCN(C(=O)c3ccc(N4C(=O)NC5CC4(C)Oc4ccccc45)cc3)CC2)cc1 (centres undefined)	/	0	4	/	/
COC(=O)c1ccc2c(c1)C(=O)N(C1CCCCC1)C2=O	i	-8	-9	i	i
C=CCNc1ncnc2ccccc12	/	3	-6	/	/
Cc1ccc(CN2CC34C=CC(O3)C(C(=O)NCc3ccc5c(c3)OCO5)C4C2=O)cc1 (centres undefined)	/	5	-4	/	/
CCOC(=O)C1=C(C)NC2=C(C(=O)CC(C)(C)C2)C1c1ccc(N(C)C)cc1 (centres undefined)	i	8	-3	i	i
COc1ccc(N(C)C(=O)c2ccc3snnc3c2)cc1	/	-2	4	/	/
Cc1cc(N2C(=O)c3ccc(C(=O)NCc4ccccc4)cc3C2=O)no1	/	-2	-1	/	/
Cc1nn(Cc2ccc(C(=O)N3c4ccc(F)cc4CCC3C)o2)c(C)c1Br (centres undefined)	/	-4	-1	/	/
COC(=O)c1ccc(COc2ccc(-c3nn[nH]n3)cc2)cc1	/	-3	3	/	/
Cc1nn(C(=O)c2ccoc2C)c(N)c1-c1ccccc1	i	-1	4	i	i
CCOC(=O)C(C)Sc1ncnc2nc[nH]c12 (centres undefined)	/	1	7	/	/
CC1=C(C(N)=O)C(c2cccs2)n2nc(-c3cccc(C)c3)nc2N1 (centres undefined)	/	-3	-3	/	/
O=C(C(NS(=O)(=O)c1cccc2nsnc12)c1ccccc1)N1CCN(c2ccccn2)CC1 (centres undefined)	/	-4	-2	/	/
CC1(C)CC2CC(C)(CN2S(=O)(=O)c2ccc(N)cc2)C1 (centres undefined)	i	14	1	i	i
O=C(Nc1ccc(Cl)cc1)OCCn1nnnc1C(c1ccccc1)N1CCOCC1 (centres undefined)	/	4	6	/	/
CCOc1cccc(-n2nnnc2-c2ccc(OC)cc2)c1	i	-4	0	i	i
CN(Cc1ccco1)C(=O)Cn1c(=O)oc2cc(S(=O)(=O)NCc3ccccc3)ccc21	i	2	8	i	i
O=C(CSc1nccc2ccccc12)N1CCN(Cc2ccc3c(c2)OCO3)CC1	/	0	0	/	/
COc1cccc(NS(=O)(=O)c2ccc3[nH]cc(C(=O)NC4CC4)c(=O)c3c2)c1	i	-3	2	i	i
COC(=O)C(Cc1ccccc1)NC(=O)CSc1nc(C)cc(=O)[nH]1 (centres undefined)	/	-4	6	/	/
Cc1ccc(-c2cc(C(=O)NCc3ccco3)c3ccccc3n2)o1	/	-3	5	/	/
COc1cc(NS(=O)(=O)c2ccc(N)cc2)ncn1	i	-6	3	i	i
CCOC(=O)CC(C#N)c1cn(C)c2ccccc12 (centres undefined)	i	0	-8	i	i
CCOC(=O)N1CCN(c2c(NCCN3CCN(Cc4ccccc4)CC3)c(=O)c2=O)CC1	/	3	1	/	/
CCc1ccc(CN2C(=O)CCC2(C)C(=O)NC2CCCC2)cc1 (centres undefined)	/	-5	2	/	/
NC(=O)C1(N2CCCCC2)CCN(c2ccc3nnc(-c4ccccc4)n3n2)CC1	/	4	-3	/	/

Record cards, from the list above:
Shown for `Cc1ccc(-c2cc(C(=O)NCc3ccco3)c3ccccc3n2)o1` : VCAM-1 augmentation = /; FPRL1 ligand = -3; FPR ligand = 5; VCAM-1 imaging = /; VCAM-1 down = /
Shown for `CCOc1cccc(-n2nnnc2-c2ccc(OC)cc2)c1` : VCAM-1 augmentation = i; FPRL1 ligand = -4; FPR ligand = 0; VCAM-1 imaging = i; VCAM-1 down = i
Shown for `O=C(Nc1ccc(Cl)cc1)OCCn1nnnc1C(c1ccccc1)N1CCOCC1` (centres undefined) : VCAM-1 augmentation = /; FPRL1 ligand = 4; FPR ligand = 6; VCAM-1 imaging = /; VCAM-1 down = /

Continued:
SMILES	VCAM-1 augmentation	FPRL1 ligand	FPR ligand	VCAM-1 imaging	VCAM-1 down
CCOC(=O)c1sc(=S)n(Cc2ccccc2)c1N	/	-2	-2	/	/
COC(=O)c1ccc(C2C(C(=O)OCC(C)C)=C(C)N=C3SCCC(=O)N32)cc1 (centres undefined)	/	-5	-2	/	/
COc1ccc(OC(=O)c2ccncc2)cc1	/	2	0	/	/
COCCCNC(=O)C1CCN(S(=O)(=O)c2c(C)noc2/C=C\c2ccc(OC)cc2)CC1	/	9	0	/	/
COc1cc2[nH]c(=O)n(CCC(=O)N3CCc4ccccc4C3)c(=O)c2cc1OC	i	1	10	i	i
CN(C)c1nccc(Nc2ccccc2)c1C#N	/	-2	-2	/	/
COc1ccccc1C1/C(=C(/O)c2ccc(C)cc2)C(=O)C(=O)N1Cc1ccco1 (centres undefined)	/	0	4	/	/
CC(=O)Nc1nnc(SCC(=O)NCC2CCCO2)s1 (centres undefined)	i	3	-4	i	i
CCC(=O)c1ccc(OCC(O)CN2C(=O)NC(C)(C)C2=O)cc1 (centres undefined)	/	2	8	/	/
Cn1c2c(c(=O)n(C)c1=O)C(NS(=O)(=O)c1ccccc1)(C(F)(F)F)C(=O)N2 (centres undefined)	/	4	6	/	/
CCCN1C(=O)C2(C(C(=O)c3ccc(C)o3)=C(O)C(=O)N2CCCN2CCOCC2)c2ccccc21 (centres undefined)	/	1	4	/	/
COc1cc(Nc2nc(SCC#N)nc3ccccc23)cc(OC)c1OC	/	1	-6	/	/

4 entries from above, with two lines to a compound.
Order of results: VCAM-1 augmentation	FPRL1 ligand	FPR ligand	VCAM-1 imaging	VCAM-1 down
CCC(=O)c1ccc(OCC(O)CN2C(=O)NC(C)(C)C2=O)cc1 (centres undefined)
    /	2	8	/	/
Cn1c2c(c(=O)n(C)c1=O)C(NS(=O)(=O)c1ccccc1)(C(F)(F)F)C(=O)N2 (centres undefined)
    /	4	6	/	/
CCCN1C(=O)C2(C(C(=O)c3ccc(C)o3)=C(O)C(=O)N2CCCN2CCOCC2)c2ccccc21 (centres undefined)
    /	1	4	/	/
COc1cc(Nc2nc(SCC#N)nc3ccccc23)cc(OC)c1OC
    /	1	-6	/	/

(further entries)
SMILES	VCAM-1 augmentation	FPRL1 ligand	FPR ligand	VCAM-1 imaging	VCAM-1 down
COc1cccc(C2CC(=O)N3CN(c4ccccc4F)CSC3=C2C#N)c1 (centres undefined)	/	2	29	/	/
CCOC(=O)c1cc(-c2ccc(C)cc2)n(CCC(=O)NCCN(C)C)c1C	/	10	-14	/	/
Nc1cc(N)cc(-c2nc3ccccc3o2)c1	i	3	1	i	i
CCOc1ccc2[nH]cc(S(=O)(=O)c3ccc(F)cc3)c(=O)c2c1	/	-11	-12	/	/
Cc1c(C(=O)Nc2ccccc2Cl)oc2ccc(S(=O)(=O)N3CCC4(CC3)OCCO4)cc12	/	-12	1	/	/
CCNc1nc(NCC)n2c(SCc3nc4ccccc4c(=O)[nH]3)nnc2n1	i	0	-9	i	i
COc1ccc(-c2cc(-c3ccc(F)cc3)nc(N3CCN(C)CC3)n2)cc1	/	-2	0	/	/
Cc1cc(=O)oc2ccc(OCC(=O)N3CCC(C)CC3)cc12	i	0	3	i	i
COc1cc(C2NC(=O)NC(O)(C(F)(F)F)C2C(=O)c2ccc(Cl)cc2)ccc1O (centres undefined)	/	13	6	/	/
Cc1nnc(SCc2cn3ccsc3n2)n(N)c1=O	i	7	4	i	i
O=C(NCc1ccco1)c1cc(-c2ccco2)on1	/	1	-4	/	/
Cc1cccc(NC(=O)CC2CCC2)c1	i	-1	-5	i	i
O=C(CCN1C(=O)C2C3C=CC(C3)C2C1=O)Nc1c(F)cccc1F (centres undefined)	/	10	-4	/	/
COc1cc2c(cc1OC)C(C(=O)Nc1cccc(C)n1)C(c1cccnc1)N(C)C2=O (centres undefined)	/	0	0	/	/
Cc1ccc(OCC(O)Cn2c(NCCc3ccccc3)nc3c2c(=O)[nH]c(=O)n3C)cc1 (centres undefined)	i	1	-4	i	i
CCCCCC(=O)N1CC2(CC)CN(C(=O)CCCCC)CC(CC)(C1)C2=O	i	2	-2	i	i
CC(=O)NCC(=O)NC(C(=O)Nc1ccc2c(c1)OCCO2)c1ccccc1 (centres undefined)	/	-9	-1	/	/
Cc1ccccc1OCc1nc(-c2ccc(NC(=O)c3ccc4c(c3)OCO4)cc2)no1	/	-2	-3	/	/
CCOc1ccccc1-c1nc(-c2ccc(C)nc2OC)no1	i	-2	-7	i	i
NS(=O)(=O)c1cc2c(cc1Cl)NC(CSCc1ccccc1)=NS2(=O)=O	i	-1	4	i	i
O=C(NCC1CCCO1)c1csc2c1CCCCC2 (centres undefined)	/	2	-2	/	/
CCCCn1c(CN2CCN(c3ccc(F)cc3)CC2)nc2c1c(=O)n(C)c(=O)n2C	i	5	2	i	i
COCCCN1C(=O)C(=O)/C(=C(/O)c2ccc(OC)cc2)C1c1ccc(O)c(OC)c1 (centres undefined)	i	-2	4	i	i
O=S1(=O)N=C(Nc2nc3c(s2)CCCC3)c2ccccc21	i	0	2	i	i
